TRPV1 potentiator: enhances activation of the human vanilloid receptor TRPV1 | TRPV1-expressing cells, Fluo-8 calcium influx, capsaicin EC20 potentiation; host cell line not named in the record; control for the full effect not named in the record | potentiation, % at 8.33 µM | actives 0.02% (n = 320,000) | AID 540277; active means potentiation above 80%; inconclusive means 30% to 80%; inactive means below 30%; further: 0% is about no effect
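TRPV1-expressing cells were cultured overnight at 35.5C and loaded with Fluo-8 calcium dye for 40 to 90 min at room temperature. After a 10 s baseline, compound was added and calcium influx was read kinetically for 3 min (ex 480/em 520 nm).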
gsp antag: antagonists of gsp mutant (McCune-Albright syndrome); gsp-mutant cells, cAMP HTRF, 30 min; control for the full effect not named in the record; Potency, µM (series often up to 76.9 µM), inactives show at the top dose activity change, negative = inhibition, hits mostly inhibitors; AID 624288; actives 0.4% (n = 340,000); active = falling curve of any shape with a large fitted effect; inconclusive = falling curve, mostly with a smaller effect; inactive = flat or rising curve; cell line not stated here;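 further: intracellular cAMP measured with PDE inhibitor Ro 20-1724 present during compound exposure; potency means the concentration at half of the fitted maximal effect; on the % scale 0 is the no-effect control and ±100 the full control effect; nearly all actives have a fitted effect of over 65% in size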
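Cells, 2000/well, grown 16–24 h in DMEM 10% FBS with 0.5 mg/ml G418, then compounds plus […] (300 uM addition stock), 30 min at 37C. cAMP read by HTRF (cAMP-d2 and anti-cAMP antibody-K in lysis buffer) after 30 min RT.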
gsp ag: activates gsp, the McCune-Albright syndrome mutation; gsp mutant cells, cAMP HTRF, 30 min; control for the full effect not named in the record; Potency, µM (top dose mostly 76.9 µM), for the others: at the highest dose activation (cAMP increase), hits mostly activators; AID 624287; actives 0.13% (n = 340,000); active = well fitted activation curve with a large enough effect; inconclusive = small, poorly fitted or top-dose-only effect, or another doubt; inactive = no such curve, though single readings can be large or run the other way; cell line not stated here;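 further: phosphodiesterase inhibitor Ro 20-1724 added with compounds to block cAMP breakdown; potency means the concentration at half of the fitted maximal effect; nearly all actives have a fitted effect of over 60% in size; about a fifth of the inactives were tested at one dose only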
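Cells stably selected in G418 were plated at 2000/well, grown 16-24 hr, then given compounds in DMSO with the PDE inhibitor […] (300 uM solution added) for 30 min at 37C; cAMP was read by HTRF.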
Menin-MLL FL inh: menin-MLL binding inhibition, fluorescein peptide; Fluorescence polarization, fluorescein-MLL peptide displacement from menin; FP activity change, % at 61.4 µM; 290,000 tested, under 10 active; AID 1766; inconclusive = falling polarisation curve, or a change in total fluorescence; inactive = total fluorescence flat and polarisation flat or rising; no compound was filed as active; the % refers to the polarisation; negative = inhibition;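 further: % of control where 0% means no effect; inhibitors lower the polarisation; unlabelled MLL peptide was the positive control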
TRPML1 blocker: human mucolipin-1 channel inhibition; activity change, negative = inhibition, % (test concentration not listed); Q9GZU1; TRPML1-inducible cells, Ca2+ dye fluorescence, FDSS; hits give low values; inhibition of EC80 agonist-evoked calcium signal; actives 0.02% (n = 390,000); in the data active means activity change below about -50%; inconclusive means about -30% to -50%; inactive means above about -30%;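 further: stimulus is agonist 54-4 at its EC80 concentration; on the % scale 0 is the no-effect control and ±100 the full control effect; compound concentration not given in the record; the text of the record puts the active cut at -80%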
Target sequence (Q9GZU1 whole entry, looked up): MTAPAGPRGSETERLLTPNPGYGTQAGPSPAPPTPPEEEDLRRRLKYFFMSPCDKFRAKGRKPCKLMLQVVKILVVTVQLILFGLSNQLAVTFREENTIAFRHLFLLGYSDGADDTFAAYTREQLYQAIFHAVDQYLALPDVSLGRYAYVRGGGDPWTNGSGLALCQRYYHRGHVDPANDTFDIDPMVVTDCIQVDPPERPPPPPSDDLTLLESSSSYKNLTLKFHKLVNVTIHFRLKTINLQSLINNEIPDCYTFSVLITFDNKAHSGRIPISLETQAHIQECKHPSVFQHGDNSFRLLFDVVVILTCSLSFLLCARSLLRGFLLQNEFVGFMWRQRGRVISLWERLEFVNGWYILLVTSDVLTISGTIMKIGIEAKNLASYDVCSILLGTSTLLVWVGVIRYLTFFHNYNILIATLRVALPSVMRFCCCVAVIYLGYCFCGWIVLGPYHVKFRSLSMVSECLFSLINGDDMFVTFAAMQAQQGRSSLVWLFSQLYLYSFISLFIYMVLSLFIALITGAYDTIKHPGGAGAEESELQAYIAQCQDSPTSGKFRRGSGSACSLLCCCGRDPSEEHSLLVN
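Tet-induced TRPML1-DL cells loaded with Ca8 no-wash calcium dye were read kinetically on FDSS. Compound addition was followed by EC80 agonist 54-4 (4 uM final); inhibition was read over 110 s.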
ClpP mod: qHTS Assay for Activators of ClpP; ATP-dependent Clp protease proteolytic subunit (Bacillus subtilis (strain 168)), P80244; purified B. subtilis ClpP, FRET peptide cleavage, 20 min; Potency, µM (doses to about 57.5 µM), inactives show top-dose activity change, negative = active; actives 1.9% (n = 340,000); AID 651965, 2013; active = well fitted falling curve with a large enough effect; inconclusive = small, poorly fitted or top-dose-only effect; inactive = no such curve, though single readings can be large or run the other way; further: potency means the concentration at half of the fitted maximal effect; the source files actives as falling curves though it sought activators and does not explain the sign; nearly all actives have a fitted effect of over 65% in size; many hits overshoot -100%
Target sequence (P80244 whole entry, looked up): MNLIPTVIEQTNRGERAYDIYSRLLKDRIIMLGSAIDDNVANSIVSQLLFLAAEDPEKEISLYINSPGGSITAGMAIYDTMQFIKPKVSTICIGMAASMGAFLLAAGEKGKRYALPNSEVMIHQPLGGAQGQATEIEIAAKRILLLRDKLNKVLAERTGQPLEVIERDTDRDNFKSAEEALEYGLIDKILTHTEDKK
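Buffer: 100 mM Tris/HCl pH8, 100 mM KCl, 0.05% low protease BSA, 2.5% glycerol, 0.01% Tween-20. ClpP 10 microg/mL final; 20 min RT; delta FRET normalized to ADEP and DMSO controls.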
Sfp inh: Sfp phosphopantetheinyl transferase inhibition | Biochemical Sfp PPTase activity, qHTS | Potency, µM, for the others: max response, negative = inhibition, most hits filed as inhibitors | Q9F4F7 | actives 3.5% (n = 310,000) | AID 1490; active means well fitted inhibition curve with a large enough effect; inconclusive means small, poorly fitted or top-dose-only effect, or another doubt; inactive means no such curve, though single readings can be large or run the other way;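 further: the enzyme is Sfp with the accession as filed and its product quenches rhodamine fluorescence; potency means the concentration at half of the fitted maximal effect; 0% = enzyme reaction without inhibitor and -100% = no enzyme wells; top concentration of the series not given in the record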
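Fluorescence-quenching assay: 15 nM Sfp-PPTase preincubated 15 min at room temperature with compound, then 5 uM rhodamine-CoA and 12.5 uM BHQ-2-labelled YbbR peptide added. Fluorescence (ex 525/em 598 nm) read at start and after 30 min; difference gives rate.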
The depositor's hits bear a star; ? = inconclusive; . = no result given; [ ] = remark or other dose.

mol	TRPV1 potentiator	gsp antag	gsp ag	Menin-MLL FL inh	TRPML1 blocker	ClpP mod	Sfp inh
O=C1NN=C2CCCCCCC12 (configuration not stated)	.	.	?	.	4	-3.4%	.
O=C(Nc1nc(-c2cccs2)cs1)c1cc2ccccc2oc1=O	12	.	.	-0.1	.	.	6%
COc1cccc(N(CC(=O)NCCSc2ccccc2)S(C)(=O)=O)c1	-2	-5%	2%	4.9	-1	-0.7%	11%
O=C(C[n+]1cccc(C(=O)N/N=C/c2ccc(Br)cc2)c1)c1ccccc1	3	6%	11%	.	1	3.9%	.
O=C(CCc1ccccc1)NNC(=O)c1ccc(F)cc1	-1	7%	?	0.3	-4	.	15%
COC(=O)c1cccc(C(=O)N2CCCC(CCC(=O)N(C)CCc3ccccn3)C2)c1 (configuration not stated)	6	-28%	13%	.	-14	-0.3%	13%
Brc1ccc2c(c1)C(c1cccnc1)=NNC(c1cccs1)=N2	-26	?	0%	-2.7	-16	1.2%	-7%
O[C@H]1C[C@H](c2ccc(Cl)cc2)N(CC2CCCCC2)C[C@@H]1n1cc(C2CC2)nn1	.	.	8%	.	9	-0.5%	.
CC1SCCN1S(=O)(=O)c1ccc2ccccc2c1 (configuration not stated)	9	?	-3%	0.8	0	1.9%	0%
O=C(CCCN1C(=O)C(c2ccccc2)Oc2cccnc21)NCc1ccc(F)cc1 (configuration not stated)	-13	-18%	-25%	-1.8	-2	0.1%	7%
Cc1cc(C)c(NC(=O)c2cc(C(=O)O)ccc2C(=O)O)c([N+](=O)[O-])c1	5	-9%	12%[15.4 µM]	-0.4	-11	.	14%
CN(CCOc1ccc(Cl)cc1)C(=O)CNS(=O)(=O)c1ccc(N(C)C)c([N+](=O)[O-])c1	3	-20%	?	.	14	0.9%	.

3 compounds picked at random from those above:
mol	TRPV1 potentiator	gsp antag	gsp ag	Menin-MLL FL inh	TRPML1 blocker	ClpP mod	Sfp inh
O=C(Nc1nc(-c2cccs2)cs1)c1cc2ccccc2oc1=O	12	.	.	-0.1	.	.	6%
COC(=O)c1cccc(C(=O)N2CCCC(CCC(=O)N(C)CCc3ccccn3)C2)c1 (configuration not stated)	6	-28%	13%	.	-14	-0.3%	13%
Cc1cc(C)c(NC(=O)c2cc(C(=O)O)ccc2C(=O)O)c([N+](=O)[O-])c1	5	-9%	12%[15.4 µM]	-0.4	-11	.	14%

Carrying on.
mol	TRPV1 potentiator	gsp antag	gsp ag	Menin-MLL FL inh	TRPML1 blocker	ClpP mod	Sfp inh
COc1ccc(CC(=O)Oc2ccc(C)cc2Br)cc1S(=O)(=O)N1CCOCC1	-4	-16%	0%[15.4 µM]	.	11	0.9%	.
COc1cc(/C=N/NC(=O)c2ccc3ccccc3c2)ccc1Oc1ccc([N+](=O)[O-])cn1	-7	-5%	-5%[15.4 µM]	0.4	11	.	2%
CCOc1ccc(NS(=O)(=O)c2ccc(C(=O)N(C)Cc3cccc(OC)c3OC)cc2)cc1	1	?	-23%	.	27	-5.7%	5%
CCc1ccccc1NC(=O)CN1CCN(C(=O)CCC(=O)N2CCC(c3ccccc3)=N2)CC1	-2	-8%	11%	.	4	?	.
Cc1cc2c(N=NC(=O)C3CC3c3ccccc3)c(O)[nH]c2cc1Br (configuration not stated)	-8	4%	-8%[15.4 µM]	6.5	-14	-1.4%	10%
O=C(CS(=O)(=O)c1cn(Cc2ccc(F)cc2)c2ccccc12)N1CCCCC1	-4	-1%	1%	6.8	11	-0.5%	15%
CCCONC(=O)Nc1ccccc1[N+](=O)[O-]	5	7%	10%	3.9	-7	1.1%	8%
CCOC(=O)c1ccc(NC(=O)COc2ccc(CNCCO)cc2OCC)cc1	-10	-28%	2%[15.4 µM]	-3.2	4	.	16%
COc1ccccc1CCC(=O)NNC(=O)c1ccc(Br)cc1	15	3%	21%	2.0	-11	.	10%
Cn1c(Cc2csc(N)n2)nnc1SCC(=O)NC1CCCCC1	-7	6%	-4%	-1.2	15	0.2%	56µM*
CC(C)c1ccc(NC(=O)CSc2nc3ccccc3nc2N2CCCC2)cc1	24	-4%	4%	1.0	6	-26%	6%
O=C(Nc1ccnn1C1CCN(C(=O)c2cnsn2)CC1)c1cccc(F)c1	-6	0%	-25%	-1.2	5	-2.2%	17%
CCN(CC)S(=O)(=O)c1ccc(C(=O)NCCN(C)C)cc1	6	17%	5%[15.4 µM]	1.2	-6	.	1%
O=C(c1ccc(S(=O)(=O)N2CCOCC2)cc1)N1CCN(c2ccccc2F)CC1	-22	7%	17%	3.1	1	0.9%	14%
Cc1noc(C)c1C(=O)Nc1nnc(-c2ccccc2)s1	5	0%	-4%	0.9	-7	-15%	19%
CC1(c2ccc3c(c2)OCO3)NC(=O)N(CC(=O)c2ccc[nH]2)C1=O (configuration not stated)	0	17%	-62%[inhibitor]	.	-17	-1.7%	.
CCOC(=O)c1cnc(-n2nc(C)cc2C)nc1NC1CCCC1	9	?	-3%[15.4 µM]	-1.6	1	.	32µM*
COCc1ccc(C(=O)N2CCCC(N3CCN(c4cccc(Cl)c4)CC3)C2)s1 (configuration not stated)	.	.	-35%[inhibitor]	.	9	-1.2%	.
COc1ccc(CC(=O)OCN2C(=O)c3ccccc3C2=O)cc1OC	-4	2%	-10%	.	18	1.4%	6%
CC(C)C(c1nnnn1C1CCCCC1)N1CCOCC1 (configuration not stated)	-9	2%	-5%	-1.8	-15	-1.7%	9%
Cc1c(C(=O)OC(C)C)sc(NC(=O)c2cccnc2)c1C#N	12	-15%	-29%	?	6	-1.3%	-25%
CCCc1[nH]nc2c1C(C1CCCCC1)C(C#N)=C(N)O2 (configuration not stated)	7	-9%	-85%[inhibitor]	0.2	18	-0.8%	4%
Cc1ccc2c(c1)c1ncnc(N3CCN(c4ccccc4)CC3)c1n2C	3	-4%	6%	2.6	3	32µM*	-13%
O=C(CC(=O)NC1CCCCC1)N/N=C/c1ccc(Cl)cc1	25	1%	-3%	-0.8	44	-3.3%	-4%

Reformatted with values under each structure: entries from further up
Results follow in this order: TRPV1 potentiator, gsp antag, gsp ag, Menin-MLL FL inh, TRPML1 blocker, ClpP mod, Sfp inh
- O=C(c1ccc(S(=O)(=O)N2CCOCC2)cc1)N1CCN(c2ccccc2F)CC1
  -22, 7%, 17%, 3.1, 1, 0.9%, 14%
- Cc1noc(C)c1C(=O)Nc1nnc(-c2ccccc2)s1
  5, 0%, -4%, 0.9, -7, -15%, 19%
- CC1(c2ccc3c(c2)OCO3)NC(=O)N(CC(=O)c2ccc[nH]2)C1=O (configuration not stated)
  0, 17%, -62%[inhibitor], ., -17, -1.7%, .
- CCOC(=O)c1cnc(-n2nc(C)cc2C)nc1NC1CCCC1
  9, ?, -3%[15.4 µM], -1.6, 1, ., 32µM*
- COCc1ccc(C(=O)N2CCCC(N3CCN(c4cccc(Cl)c4)CC3)C2)s1 (configuration not stated)
  ., ., -35%[inhibitor], ., 9, -1.2%, .
- COc1ccc(CC(=O)OCN2C(=O)c3ccccc3C2=O)cc1OC
  -4, 2%, -10%, ., 18, 1.4%, 6%
- CC(C)C(c1nnnn1C1CCCCC1)N1CCOCC1 (configuration not stated)
  -9, 2%, -5%, -1.8, -15, -1.7%, 9%

Following part.
mol	TRPV1 potentiator	gsp antag	gsp ag	Menin-MLL FL inh	TRPML1 blocker	ClpP mod	Sfp inh
COc1ccc(C(CC(=O)c2ccccc2)S(=O)(=O)c2ccccc2)cc1 (configuration not stated)	-6	11%	1%	2.2	-19	-4.4%	-5%
Cc1ccc(NS(=O)(=O)c2cccc(C(=O)NCCCN3CCCC3=O)c2)cc1	11	-10%	10%	.	14	-0.5%	.
OC(CNCc1ccc(Cl)c(Cl)c1)c1ccccc1 (configuration not stated)	6	6%	3%	4.2	-8	.	3%
CC1(C(=O)OCC(=O)N2c3ccccc3Sc3ccccc32)CC1(Cl)Cl (configuration not stated)	-5	-10%	-5%	5.1	6	-4.6%	24%
CCN(CC)C(=O)[C@H]1C[C@H](CC(=O)NCc2ccco2)C(=O)N2CCc3c([nH]c4ccc(Cl)cc34)[C@]12C	.	-10%	.	.	6	0.8%	.
CN1CCN(C2Cc3ccc(F)cc3Sc3cc(F)c(Cl)cc32)CC1 (configuration not stated)	.	13%	26%	.	1	.	.
O=C(Nn1cnnc1)c1cccc(S(=O)(=O)N2CCOCC2)c1	14	0%	1%[15.4 µM]	-1.8	9	-6.1%	13%
Cc1ccc(-n2c(C)cc(C(=O)COC(=O)c3ccc[nH]c3=O)c2C)cc1	-3	-11%	-25%	4.7	-5	0.8%	3%
O=C(CCN1CCOCC1)c1ccc(Cl)cc1	5	5%	17%[15.4 µM]	-1.0	-11	-1.3%	-13%
Cn1c2c(c(=O)n(C)c1=O)C1c3ccccc3OCC1C(C)(C)O2 (configuration not stated)	-9	8%	0%	1.8	-11	-2.7%	19%
COc1ccc(C2=CC(=O)OC3(CCCC3)O2)cc1	1	-14%	0%	8.2	-3	-19%	2%
O=C(Nc1ccccc1N1CCCCC1)c1cc(S(=O)(=O)N2CCOCC2)ccc1F	-11	-16%	-10%	.	56	0.4%	.
O=C(c1cc(F)ccc1F)C1CCCN(C(=O)CCN2CCCCO2)C1 (configuration not stated)	-51	20%	-5%[15.4 µM]	1.3	-14	.	3%
Cc1nn(-c2ccccc2)c(/N=C/c2ccccc2O)c1-c1ccccc1	-6	0%	-24%	4.9	17	0.5%	9%
C/C(=N/NC(=O)CNC(=O)c1ccco1)c1ccc(Cl)cc1	3	-5%	-7%	0.1	7	1.5%	2%
CC(C)C(c1nnnn1Cc1ccccc1)N1CCN(Cc2ccc3c(c2)OCO3)CC1 (configuration not stated)	-10	-6%	15%	-0.2	72	3.3%	?
